Vaccinia inh: blocks a specific stage of Vaccinia orthopoxvirus infection. Vaccinia-infected cells, mCherry/Venus stage reporter fluorescence; active compounds read low; some inactives read as strong as hits. activity change (mCherry), % (concentration not given with the values). hit rate 0.01% among 89,000;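 active means mCherry past -33% and 40 or more points under the early reporter, replicates agreeing; inconclusive means past -33% without that gap or agreement; tested in A549 cells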;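 further: scaled between vehicle wells and reference inhibitor wells; 23 nL library stock went into each well; one replicate is shown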
Vaccinia inh Venus: also measured in Vaccinia inh; calls as there; activity change (Venus), %; measured here: Venus reporter, other viral stage;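 negative = less Venus signal; first of two replicates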
An asterisk follows results filed as active; ? = inconclusive; . = no result given; & = joins results of further samples. Some of the compounds tested. The share of hits here may be higher or lower than overall.

SMILES	Vaccinia inh	Vaccinia inh Venus
Cc1ccc(S(=O)(=O)N(C)C[C@@H]2OCCCC[C@@H](C)Oc3ccc(NC(=O)CCCN(C)C)cc3C(=O)N([C@H](C)CO)C[C@H]2C)cc1	-13.3	-16.4
C[C@H](CO)N1C[C@H](C)[C@H](CN(C)S(=O)(=O)CC(F)(F)F)OCc2ccccc2-c2c(n(C)c3ccccc23)C1=O	-13.0	-11.8
C[C@H]1CN([C@@H](C)CO)S(=O)(=O)c2ccc(/C=C/c3ccccc3)cc2O[C@@H]1CN(C)C(=O)c1ccncc1	?	.
CCCNC(=O)N(C)C[C@H]1Oc2ncc(-c3ccccc3F)cc2C(=O)N([C@@H](C)CO)C[C@H]1C	-10.2	-4.4
O=C(C[C@H]1C=C[C@@H](NC(=O)Nc2cc(F)ccc2F)[C@H](CO)O1)NCCCN1CCOCC1	2.7	6.4
C[C@@H]1CN([C@H](C)CO)C(=O)Cc2cc(NC(=O)C3CCCCC3)ccc2O[C@H]1CN(C)Cc1ccc(C(F)(F)F)cc1	-13.8	-14.6
CCCN(C)C[C@@H]1OCCCC[C@H](C)Oc2ccc(NC(=O)Nc3ccc(C(F)(F)F)cc3)cc2C(=O)N([C@@H](C)CO)C[C@@H]1C	-15.6	-1.1
C[C@H](O)C#Cc1cnc2c(c1)C(=O)N([C@@H](C)CO)C[C@@H](C)[C@H](CN(C)C(=O)c1ccccc1F)O2	3.5	-5.1
O=C(Nc1ccccc1F)N[C@H]1CC[C@H](CCNS(=O)(=O)c2ccccc2)O[C@@H]1CO	1.8	-2.8
COc1ccccc1-c1ccc2c(c1)O[C@@H](CN(C)C)[C@@H](C)CN([C@H](C)CO)S2(=O)=O	15.0	3.2

Reprinted at random: two entries already listed, in no set order.
SMILES	Vaccinia inh	Vaccinia inh Venus
C[C@H](CO)N1C[C@H](C)[C@H](CN(C)S(=O)(=O)CC(F)(F)F)OCc2ccccc2-c2c(n(C)c3ccccc23)C1=O	-13.0	-11.8
O=C(C[C@H]1C=C[C@@H](NC(=O)Nc2cc(F)ccc2F)[C@H](CO)O1)NCCCN1CCOCC1	2.7	6.4

(cont.)
SMILES	Vaccinia inh	Vaccinia inh Venus
Cc1noc(C)c1S(=O)(=O)Nc1ccc2c(c1)C(=O)N([C@H](C)CO)C[C@H](C)[C@@H](CN(C)C)O2	8.4	-2.2
CO[C@H]1CN(C)C(=O)c2cc(NS(=O)(=O)c3ccccc3)ccc2OC[C@@H](C)N(Cc2ccccn2)C[C@H]1C	2.7	0.7
COc1ccc(S(=O)(=O)N(C)C[C@H]2OCCCC[C@H](C)Oc3ccc(NC(=O)CCC(F)(F)F)cc3C(=O)N([C@H](C)CO)C[C@H]2C)cc1	12.0	-4.7
CCCC#Cc1ccc([C@@H]2[C@@H](CO)N3C(=O)CN(C(=O)c4ccccn4)C[C@@H]23)cc1	18.2	12.6
Cc1ccc(S(=O)(=O)N(C)C[C@@H]2Oc3c(NS(=O)(=O)c4cccs4)cccc3C(=O)N([C@@H](C)CO)C[C@H]2C)cc1	-1.6	-15.1
COCCOC(=O)N1C(=O)[C@@]2(c3cc(C#CCC(C(=O)OC)C(=O)OC)ccc31)[C@H](C(=O)Nc1nc3ccccc3s1)[C@H]1C(=O)O[C@H](c3ccccc3)[C@H](c3ccccc3)N1[C@@H]2c1ccccc1OCCO	-1.6	-1.3
COc1ccccc1NC(=O)N1CCCCN2[C@@H](CO)[C@@H](c3ccc(-c4cccc(C#N)c4)cc3)[C@@H]2C1	?	.
C[C@H](O)C#Cc1cnc2c(c1)C(=O)N([C@H](C)CO)C[C@@H](C)[C@@H](CN(C)Cc1ccccn1)O2	25.4	6.9
COc1ccc(S(=O)(=O)Nc2ccc3c(c2)C(=O)N([C@@H](C)CO)C[C@H](C)[C@H](CN(C)S(=O)(=O)c2cn(C)cn2)OCCCC[C@@H](C)O3)cc1	34.7	12.7
CC(C)NC(=O)Nc1ccc2c(c1)C(=O)N([C@H](C)CO)C[C@H](C)[C@@H](CN(C)C(=O)Nc1ccc(F)cc1)OCCCC[C@@H](C)O2	21.4	14.6
O=C(Nc1ccc(F)cc1)N1C[C@@H]2[C@H](c3ccccc31)[C@@H](CO)N2C(=O)Cc1cccnc1	5.6	4.4
CC(=O)N(C)C[C@@H]1Oc2ncc(C#C[C@H](C)O)cc2C(=O)N([C@H](C)CO)C[C@@H]1C	18.7	3.0
CC(=O)N[C@H]1CC[C@@H](CCNC(=O)C2CCC2)O[C@H]1CO	0.9	-0.7
COc1ccccc1-c1ccc([C@@H]2[C@H](C#N)N(C(=O)C3CC3)[C@H]2CO)cc1	-10.5	-7.7
CC(C)[C@@H](C)NC(=O)N(C)C[C@H]1OCc2ccccc2-c2c(n(C)c3ccccc23)C(=O)N([C@H](C)CO)C[C@@H]1C	-12.6	-5.3
C[C@H](CO)N1C[C@H](C)[C@H](CN(C)C(=O)c2cccc(F)c2)Oc2ncc(-c3cccnc3)cc2C1=O	2.1	0.8
Cc1noc(C)c1S(=O)(=O)Nc1ccc2c(c1)C(=O)N([C@@H](C)CO)C[C@@H](C)[C@H](CN(C)S(=O)(=O)c1cn(C)cn1)OCCCC[C@H](C)O2	30.0	10.3
O=C(Cc1cccnc1)N1CC(=O)N2[C@H](CO)[C@@H](c3ccc(C4=CCCC4)cc3)[C@H]2C1	-8.4	-5.7
COc1ccc(S(=O)(=O)N(C)C[C@H]2Oc3c(NS(=O)(=O)c4ccc(F)cc4)cccc3C(=O)N([C@H](C)CO)C[C@@H]2C)cc1	17.8	20.3
O=C(c1cnccn1)N1CC(=O)N2[C@H](CO)[C@H](c3ccc(-c4ccc(F)cc4)cc3)[C@H]2C1	-4.1	-5.6
C[C@@H]1CN([C@@H](C)CO)C(=O)c2cc(NC(=O)NC3CCCCC3)ccc2O[C@@H](C)CCCCO[C@H]1CN(C)S(=O)(=O)c1cn(C)cn1	36.5	4.3
N#Cc1cccc(-c2ccc([C@@H]3[C@@H]4CN(S(=O)(=O)c5ccc(-c6ccccc6)cc5)C[C@H]3N4)cc2)c1	?	.
CNC[C@@H]1Oc2cc(C#CC(C)(C)O)ccc2S(=O)(=O)N([C@@H](C)CO)C[C@H]1C	3.9	-5.2
COc1ccc(CNC(=O)C[C@@H]2C=C[C@@H](NC(=O)c3ccc4c(c3)OCO4)[C@H](CO)O2)cc1	5.1	-4.5
CNC(=O)C[C@@H]1CC[C@@H]2[C@H](COC[C@H](O)CN2S(=O)(=O)c2ccccc2Cl)O1	21.7	3.7
C[C@@H]1CN([C@@H](C)CO)C(=O)c2cc(NS(=O)(=O)c3ccccc3)ccc2O[C@@H](C)CCCCO[C@@H]1CN(C)Cc1ccc(C(F)(F)F)cc1	?	.
Cc1noc(C)c1NC(=O)Nc1ccc2c(c1)C(=O)N([C@@H](C)CO)C[C@@H](C)[C@@H](CN(C)C(=O)c1ccccc1)OCCCC[C@@H](C)O2	9.8	1.2
O=C(Nc1ccc2c(c1)[C@@H]1C[C@H](CC(=O)N3CCCCC3)O[C@@H](CO)[C@@H]1O2)NC1CCCCC1	22.5	13.8
COc1ccc(C#Cc2ccc3c(c2)O[C@H](CN(C)C(C)=O)[C@@H](C)CN([C@H](C)CO)S3(=O)=O)cc1	-10.6	-12.5
C[C@@H]1CN([C@@H](C)CO)C(=O)c2cc(NS(=O)(=O)c3ccc(F)cc3)ccc2O[C@@H]1CN(C)Cc1ccc(Oc2ccccc2)cc1	-20.9	-4.4
COc1cccc(-c2ccc3c(c2)O[C@@H](CN(C)CC2CC2)[C@@H](C)CN([C@@H](C)CO)S3(=O)=O)c1	-31.1	-23.1
COc1cccc(-c2ccc3c(c2)O[C@@H](CN(C)C(=O)C2CCOCC2)[C@H](C)CN([C@H](C)CO)S3(=O)=O)c1	-3.8&1.2	-10.7&-9.1
CC(C)C#Cc1ccc2c(c1)O[C@H](CN(C)Cc1ccccc1)[C@@H](C)CN([C@H](C)CO)S2(=O)=O	?	.
O=C(Cc1ccncc1)N1C[C@@H]2N[C@H](C1)C2c1ccc(-c2ccncc2)cc1 (some centres undefined)	?	10.4
C/C=C/c1cnc2c(c1)C(=O)N([C@@H](C)CO)C[C@H](C)[C@H](CN(C)C(=O)Cc1ccccn1)O2	2.3	5.2
O=C(c1cccnc1)N1C[C@H]2[C@@H](c3ccccc31)[C@H](CO)N2CC1CCCCC1	3.3	-0.4
C[C@@H]1CN([C@@H](C)CO)C(=O)Cc2cc(NS(=O)(=O)c3cn(C)cn3)ccc2O[C@H]1CN(C)S(=O)(=O)c1ccc(Cl)cc1	5.9	-2.4
C[C@@H]1CN([C@@H](C)CO)C(=O)c2cc(-c3ccc(C#N)cc3)cnc2O[C@@H]1CN(C)C(=O)Nc1ccc(C(F)(F)F)cc1	?	.
CO[C@@H]1CN(C)C(=O)c2ccc(NC(=O)Cc3ccccc3)cc2OC[C@H](C)N(C)C[C@@H]1C	10.9	5.8
CN1c2ccc(-c3ccccc3F)cc2[C@H]2[C@H](CCN2S(=O)(=O)c2ccccc2)[C@H]1CO	?	.

Full records from above. Order of screens: Vaccinia inh, Vaccinia inh Venus
C[C@@H]1CN([C@@H](C)CO)C(=O)Cc2cc(NS(=O)(=O)c3cn(C)cn3)ccc2O[C@H]1CN(C)S(=O)(=O)c1ccc(Cl)cc1 is listed as 5.9, -2.4
C/C=C/c1cnc2c(c1)C(=O)N([C@@H](C)CO)C[C@H](C)[C@H](CN(C)C(=O)Cc1ccccn1)O2 is listed as 2.3, 5.2
COc1cccc(-c2ccc3c(c2)O[C@@H](CN(C)C(=O)C2CCOCC2)[C@H](C)CN([C@H](C)CO)S3(=O)=O)c1 is listed as -3.8&1.2, -10.7&-9.1
CO[C@@H]1CN(C)C(=O)c2ccc(NC(=O)Cc3ccccc3)cc2OC[C@H](C)N(C)C[C@@H]1C is listed as 10.9, 5.8
COc1cccc(-c2ccc3c(c2)O[C@@H](CN(C)CC2CC2)[C@@H](C)CN([C@@H](C)CO)S3(=O)=O)c1 is listed as -31.1, -23.1

Going on with the list.
SMILES	Vaccinia inh	Vaccinia inh Venus
C[C@H](NC(=O)C[C@H]1C=C[C@H](NC(=O)C2CCC2)[C@@H](CO)O1)c1ccccc1	2.1	10.3
C[C@@H]1CCCCO[C@@H](CN(C)Cc2ccc3c(c2)OCO3)[C@@H](C)CN([C@H](C)CO)C(=O)c2cc(NS(C)(=O)=O)ccc2O1	11.7	5.5
CC(C)CC#Cc1ccc2c(c1)O[C@H](CN(C)S(=O)(=O)c1cccc(F)c1)[C@H](C)CN([C@H](C)CO)S2(=O)=O	?	.
C[C@@H]1CN([C@@H](C)CO)C(=O)c2c(c3ccccc3n2C)-c2ccccc2CO[C@@H]1CN(C)Cc1cccc2c1OCCCO2	?	.
C[C@@H](NC(=O)C[C@H]1CC[C@H](NS(=O)(=O)c2cccc(F)c2)[C@@H](CO)O1)c1ccccc1	12.0	18.0
C[C@@H]1CN([C@@H](C)CO)C(=O)CCCn2cc(nn2)CO[C@H]1CN(C)C(=O)c1cc(-c2ccccc2)on1	-2.5	-4.7
CO[C@@H](CN(C)S(=O)(=O)c1ccc(F)cc1)[C@H](C)CN(C(=O)Nc1ccccc1F)[C@@H](C)CO	-2.6	-2.9
C[C@@H](NC(=O)C[C@@H]1CC[C@@H]2[C@H](COc3ccc(NC(=O)C4CCOCC4)cc3C(=O)N2C)O1)c1ccccc1	8.5	8.4
C[C@H](CO)N1C[C@H](C)[C@@H](CN(C)S(=O)(=O)c2cccs2)OCCCC[C@H](C)Oc2ccc(N(C)C)cc2C1=O	-10.4	-0.2
CNC(=O)C[C@@H]1CC[C@@H]2[C@@H](COc3ccc(NC(=O)c4cc(F)cc(F)c4)cc3C(=O)N2C)O1	6.8	9.1
CO[C@H]1CN(C)C(=O)c2ccc(NS(=O)(=O)c3cn(C)cn3)cc2OC[C@H](C)N(C)C[C@@H]1C	7.1	4.1
O=C(c1ccccc1F)N1CC(=O)N2[C@H](C1)[C@@H](c1ccc(-c3ccc(F)cc3)cc1)[C@@H]2CO	-27.9	-51.5
CCC(=O)N1CC2(C1)[C@@H](c1ccc(-c3ccccc3C)cc1)[C@@H](CO)N2C(C)=O	10.8	8.4
COc1ccccc1-c1ccc([C@H]2[C@H](CO)N3CCCCN(C(=O)NC4CCCC4)C[C@@H]23)cc1	?	.
CO[C@@H]1CN(C)C(=O)c2ccc(NC(C)=O)cc2OC[C@H](C)N(Cc2cncnc2)C[C@H]1C	8.1	6.8
C[C@@H]1CCCCO[C@@H](CN(C)S(=O)(=O)c2ccccc2)[C@H](C)CN([C@H](C)CO)C(=O)c2cc(NC(=O)C3CCCCC3)ccc2O1	?	.
COc1ccc(CN(C)C[C@H]2Oc3ccc(NS(=O)(=O)c4c(C)noc4C)cc3CC(=O)N([C@H](C)CO)C[C@H]2C)cc1	-2.6	-4.8
COc1ccc(NC(=O)Nc2cccc3c2O[C@H](CN(C)Cc2ccc4c(c2)OCO4)[C@@H](C)CN([C@H](C)CO)C3=O)cc1	7.7	11.8
CC(=O)N(C)C[C@@H]1Oc2ncc(C#Cc3cccc(F)c3)cc2C(=O)N([C@H](C)CO)C[C@H]1C	22.1	2.9
CNC[C@H]1Oc2ccc(NS(=O)(=O)c3ccc(C)cc3)cc2C(=O)N([C@H](C)CO)C[C@@H]1C	7.2	2.8
C[C@H](CO)N1C[C@H](C)[C@@H](CN(C)S(=O)(=O)c2ccc(F)cc2)Oc2ccc(NS(=O)(=O)c3ccc(Cl)cc3)cc2C1=O	14.7	10.3
C[C@H]1CN([C@@H](C)CO)C(=O)c2cccc(NS(=O)(=O)c3ccc(Cl)cc3)c2O[C@H]1CN(C)Cc1ccc(-c2ccccc2)cc1	?	.
C[C@@H]1CN([C@H](C)CO)C(=O)c2cc(NC(=O)NC3CCCCC3)ccc2O[C@@H](C)CCCCO[C@@H]1CN(C)S(=O)(=O)c1cccs1	-6.5	5.7
O=C(C[C@@H]1CC[C@@H]2[C@H](COC[C@@H](O)CN2Cc2cccc(C(F)(F)F)c2)O1)NCc1ccc(F)cc1	-18.0	-15.0
Cc1ccc(S(=O)(=O)Nc2ccc3c(c2)CC(=O)N([C@H](C)CO)C[C@@H](C)[C@@H](CN(C)C(=O)Nc2ccc(F)cc2)O3)cc1	0.0	-2.4
CCC(=O)N[C@@H]1C=C[C@H](CC(=O)NCC2CC2)O[C@@H]1CO	4.1	-2.3

Screening data as filed in PubChem BioAssay.
